# Screening data from PubChem.
# Vaccinia stage: blocks a specific stage of Vaccinia orthopoxvirus infection; Vaccinia-infected cells, mCherry/Venus stage reporter fluorescence; active compounds read low; some inactives read as strong as hits; activity change (mCherry), % (concentration not given with the values); 89,000 compounds, 0.01% hits;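 active means mCherry past -33% and 40 or more points under the early reporter, replicates agreeing; inconclusive means past -33% without that gap or agreement; tested in A549 cells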;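 further: scaled between vehicle wells and reference inhibitor wells; 23 nL library stock went into each well; one replicate is shown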
# Vaccinia stage Venus: further read-out of Vaccinia stage, marked with its call; activity change (Venus), %; measured here: Venus reporter, other viral stage;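 negative = less Venus signal; first of two replicates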
# * hit, by the source's call; ? = inconclusive; · = no result given. Not all compounds are listed; count on the stated rates, not on these rows.
# Start of the listing, in advance, five compounds:
SMILES,Vaccinia stage,Vaccinia stage Venus
C[C@@H]1CN([C@H](C)CO)C(=O)c2cc(NC(=O)c3ccncc3)ccc2O[C@@H](C)CCCCO[C@H]1CN(C)C(=O)Nc1ccccc1,19,2
O=C(c1ccc(F)cc1)N1CCCCN2[C@H](CO)[C@@H](c3ccc(-c4ccccc4)cc3)[C@H]2C1,?,·
Cc1ccccc1S(=O)(=O)N(C)C[C@H]1OCc2ccccc2-c2c(n(C)c3ccccc23)C(=O)N([C@H](C)CO)C[C@@H]1C,-34,-21
C[C@@H]1CN([C@@H](C)CO)C(=O)c2ccccc2-c2ccccc2CO[C@H]1CN(C)C(=O)Nc1ccc2c(c1)OCO2,7,6
COc1cccc(NC(=O)N2CC(=O)N3[C@@H](CO)[C@@H](c4ccc(C5=CCCC5)cc4)[C@@H]3C2)c1,-4,-1

# The list itself, repeating the preview:
SMILES,Vaccinia stage,Vaccinia stage Venus
C[C@@H]1CN([C@H](C)CO)C(=O)c2cc(NC(=O)c3ccncc3)ccc2O[C@@H](C)CCCCO[C@H]1CN(C)C(=O)Nc1ccccc1,19,2
O=C(c1ccc(F)cc1)N1CCCCN2[C@H](CO)[C@@H](c3ccc(-c4ccccc4)cc3)[C@H]2C1,?,·
Cc1ccccc1S(=O)(=O)N(C)C[C@H]1OCc2ccccc2-c2c(n(C)c3ccccc23)C(=O)N([C@H](C)CO)C[C@@H]1C,-34,-21
C[C@@H]1CN([C@@H](C)CO)C(=O)c2ccccc2-c2ccccc2CO[C@H]1CN(C)C(=O)Nc1ccc2c(c1)OCO2,7,6
COc1cccc(NC(=O)N2CC(=O)N3[C@@H](CO)[C@@H](c4ccc(C5=CCCC5)cc4)[C@@H]3C2)c1,-4,-1
O=C(C[C@@H]1C[C@H]2c3cc(NC(=O)C4CCC4)ccc3O[C@H]2[C@H](CO)O1)NCCc1ccccc1,-10,-10
O=S(=O)(c1cccs1)N1CCCCN2[C@H](CO)[C@H](c3ccc(Br)cc3)[C@H]2C1,-18,-9
CC(=O)N(C)C[C@H]1Oc2cc(C#C[C@@H](C)O)ccc2S(=O)(=O)N([C@H](C)CO)C[C@H]1C,14,12
CCC(=O)Nc1ccc2c(c1)C(=O)N(C)[C@@H]1CC[C@@H](CC(=O)NCCc3ccccc3)O[C@H]1CO2,-1,1
C[C@@H]1CN([C@H](C)CO)C(=O)c2cc(NC(=O)C3CCCCC3)ccc2O[C@H]1CN(C)Cc1ccccc1,18,23
CC(C)NC(=O)N(C)C[C@@H]1Oc2ccc(NS(=O)(=O)c3cn(C)cn3)cc2CC(=O)N([C@H](C)CO)C[C@H]1C,23,12
CN(C)CC(=O)N1CCCCN2[C@@H](CO)[C@@H](c3ccc(-c4cccnc4)cc3)[C@@H]2C1,7,8
CN1[C@@H]2CN(C(=O)C3CCOCC3)c3ccccc3[C@@H]2[C@@H]1CO,16,9
O=C(c1ccccc1F)N1C[C@@H]2[C@H](c3ccccc31)[C@H](CO)N2C(=O)c1ccccc1,3,7
CCCNC(=O)N(C)C[C@H]1Oc2cc(C#CCC(C)C)ccc2S(=O)(=O)N([C@@H](C)CO)C[C@H]1C,-8,-6
CCc1cnc(N2[C@H](C#N)[C@@H](c3ccccc3)[C@H]2CO)s1,-3,-1
O=C(NC1CCCC1)N1CC(=O)N2[C@H](CO)[C@@H](c3ccc(-c4ccc(F)cc4)cc3)[C@H]2C1,?,·
Cc1noc(C)c1S(=O)(=O)N(C)C[C@@H]1OCCCC[C@H](C)Oc2ccc(NC(=O)NC(C)C)cc2C(=O)N([C@H](C)CO)C[C@H]1C,-4,-3
C[C@H](CO)N1C[C@H](C)[C@H](CN(C)C(=O)Nc2ccccc2)Oc2ncc(C#CC3CCCC3)cc2C1=O,-32,-24
OC[C@@H]1[C@@H](c2ccc(/C=C/c3ccccc3)cc2)[C@@H]2CN(Cc3cncnc3)CCCCN12,-17,-11
COc1ccc(NC(=O)N(C)C[C@@H]2Oc3ccc(NC(=O)c4ccncc4)cc3C(=O)N([C@H](C)CO)C[C@H]2C)cc1,-2,3
C[C@H]1CN([C@@H](C)CO)C(=O)c2cc(-c3cccnc3)cnc2O[C@@H]1CN(C)S(C)(=O)=O,12,13
CCS(=O)(=O)N[C@@H]1C=C[C@H](CC(=O)NCc2ccccn2)O[C@@H]1CO,14,12
C[C@@H]1CN([C@@H](C)CO)C(=O)c2cc(NS(C)(=O)=O)ccc2O[C@@H]1CN(C)C(=O)Nc1ccc(C(F)(F)F)cc1,-6,-7
C[C@H](CO)N1C[C@H](C)[C@@H](CN(C)C(=O)Nc2ccccc2)Oc2ccc(NS(C)(=O)=O)cc2C1=O,5,1
CCC(=O)Nc1ccc2c(c1)OC[C@@H](C)N(Cc1ccccc1F)C[C@@H](C)[C@H](OC)CN(C)C2=O,-18,-2
CN(C)C(=O)C[C@@H]1CC[C@H]2[C@H](COc3ccc(NC(=O)c4ccc(F)cc4)cc3C(=O)N2C)O1,0,3
Cc1ccc(S(=O)(=O)N(C)C[C@H]2Oc3ccc(NC(=O)C4CCCCC4)cc3CC(=O)N([C@H](C)CO)C[C@H]2C)cc1,-3,-3
C[C@H](CO)N1C[C@H](C)[C@H](CN(C)C(=O)C2CCC2)Oc2ncc(C#CCc3ccccc3)cc2C1=O,12,8
COc1ccc(-c2cnc3c(c2)C(=O)N([C@H](C)CO)C[C@H](C)[C@@H](CN(C)C(=O)NC2CCCC2)O3)cc1,18,12
C[C@H](CO)N1C[C@H](C)[C@H](CN(C)S(=O)(=O)c2ccc(C#N)cc2)OCc2cnnn2CCCC1=O,20,18
COc1ccc(NC(=O)Nc2ccc3c(c2)C(=O)N([C@H](C)CO)C[C@H](C)[C@@H](CN(C)CC2CC2)OCCCC[C@H](C)O3)cc1,12,-10
CC(C)NC(=O)N1CCCCN2[C@H](CO)[C@@H](c3ccc(C#C[C@@H](C)O)cc3)[C@@H]2C1,35,9
Cc1noc(C)c1S(=O)(=O)Nc1cccc2c1O[C@@H](CN(C)S(=O)(=O)c1ccc(F)cc1)[C@@H](C)CN([C@@H](C)CO)C2=O,5,1
C[C@H]1CN([C@@H](C)CO)C(=O)c2cc(C3=CCCCC3)cnc2O[C@H]1CN(C)C(=O)NC1CCCC1,-9,-8
CO[C@@H]1CC[C@H]2CCN(C)C(=O)CCCN(C)C(=O)c3cc(C#N)ccc3OC[C@@H]1O2,16,2
COc1ccc(NC(=O)Nc2ccc3c(c2)CC(=O)N([C@@H](C)CO)C[C@@H](C)[C@H](CN(C)S(=O)(=O)c2cccs2)O3)cc1,-11,-10
C[C@@H]1CN([C@H](C)CO)C(=O)Cc2cc(NC(=O)c3ccncc3)ccc2O[C@@H]1CN(C)C(=O)NC1CCCCC1,4,9
C[C@H](CO)N1C[C@H](C)[C@@H](CN(C)Cc2ccc3c(c2)OCO3)Oc2cc(Br)ccc2S1(=O)=O,-29,-29
Cc1noc(C)c1NC(=O)Nc1ccc2c(c1)C(=O)N([C@@H](C)CO)C[C@@H](C)[C@@H](CN(C)C(=O)Nc1ccc(F)cc1)OCCCC[C@@H](C)O2,7,-6
OC(CSc1nc2ccccc2s1)CC(O)c1ccccc1 (stereo not drawn),11,7
CO[C@H]1CN(C)C(=O)c2ccc(NS(=O)(=O)c3ccccc3Cl)cc2OC[C@H](C)NC[C@@H]1C,6,-4
COc1ccc(NC(=O)Nc2ccc3c(c2)[C@H]2C[C@@H](CC(=O)NCc4ccc5c(c4)OCO5)O[C@@H](CO)[C@H]2O3)cc1,15,11
O=C(C[C@@H]1CC[C@@H]2[C@H](COC[C@H](O)CN2C(=O)c2ccc3c(c2)OCO3)O1)NC1CCC1,5,5
C[C@H](NC(=O)C[C@H]1CC[C@H]2[C@@H](COC[C@@H](O)CN2C(=O)Nc2ccccc2)O1)c1ccccc1,0,0

# 4 of these compounds, set out differently:
C[C@H](CO)N1C[C@H](C)[C@H](CN(C)S(=O)(=O)c2ccc(C#N)cc2)OCc2cnnn2CCCC1=O
  Vaccinia stage: 20; Vaccinia stage Venus: 18
COc1ccc(NC(=O)Nc2ccc3c(c2)C(=O)N([C@H](C)CO)C[C@H](C)[C@@H](CN(C)CC2CC2)OCCCC[C@H](C)O3)cc1
  Vaccinia stage: 12; Vaccinia stage Venus: -10
CC(C)NC(=O)N1CCCCN2[C@H](CO)[C@@H](c3ccc(C#C[C@@H](C)O)cc3)[C@@H]2C1
  Vaccinia stage: 35; Vaccinia stage Venus: 9
Cc1noc(C)c1S(=O)(=O)Nc1cccc2c1O[C@@H](CN(C)S(=O)(=O)c1ccc(F)cc1)[C@@H](C)CN([C@@H](C)CO)C2=O
  Vaccinia stage: 5; Vaccinia stage Venus: 1

# (next part)
SMILES,Vaccinia stage,Vaccinia stage Venus
C[C@@H]1CN([C@H](C)CO)C(=O)c2cc(NC(=O)Nc3ccc4c(c3)OCO4)ccc2O[C@@H]1CN(C)Cc1ccc(C(F)(F)F)cc1,?,·
C[C@@H]1CCCCO[C@@H](CN(C)S(=O)(=O)c2ccccc2)[C@@H](C)CN([C@@H](C)CO)C(=O)c2cc(NC(=O)c3ccccc3)ccc2O1,-2,-15
C[C@H]1CN([C@@H](C)CO)C(=O)c2cccc(N(C)C)c2O[C@@H]1CN(C)Cc1ccc(C(=O)Nc2ccccc2N)cc1,-17,-1
Cc1ccccc1-c1ccc([C@@H]2[C@@H](CO)N3C(=O)CN(C(=O)Nc4ccc(F)cc4)C[C@H]23)cc1,-21,-11
CC(C)CC#Cc1ccc2c(c1)O[C@H](CN(C)C(=O)c1ccccc1)[C@H](C)CN([C@@H](C)CO)S2(=O)=O,?,·
O=C(C[C@@H]1C=C[C@@H](NC(=O)c2ccncc2)[C@@H](CO)O1)NCCc1ccncc1,23,13
Cc1ccc(S(=O)(=O)N(C)C[C@H]2Oc3ccc(NC(=O)C4CCCCC4)cc3C(=O)N([C@H](C)CO)C[C@@H]2C)cc1,?,·
Cc1ccc(S(=O)(=O)Nc2ccc3c(c2)CC(=O)N([C@H](C)CO)C[C@@H](C)[C@@H](CN(C)S(=O)(=O)c2cccs2)O3)cc1,0,-12
O=C(C[C@@H]1CC[C@H]2[C@@H](COC[C@@H](O)CN2C(=O)c2ccncc2)O1)NC1CCC1,3,4
C[C@H](CO)N1C[C@H](C)[C@@H](CN(C)S(=O)(=O)c2cn(C)cn2)Oc2c(NS(=O)(=O)c3cccs3)cccc2C1=O,34,17
Cc1noc(C)c1NC(=O)N[C@H]1CC[C@@H](CC(=O)Nc2ccc(-c3ccccc3)cc2)O[C@@H]1CO,0,-2
O=C(C[C@H]1C[C@@H]2c3cc(NC(=O)c4ccc5c(c4)OCO5)ccc3O[C@@H]2[C@H](CO)O1)NCc1ccc(Cl)cc1,-18,-9
C[C@@H](NC(=O)[C@@H]1[C@@H](CO)[C@@H]2Cn3c(cccc3=O)[C@@H]2N1Cc1ccncc1)c1ccccc1,-8,3
CN1[C@@H]2Cn3c(ccc(-c4cccnc4)c3=O)[C@H]1[C@@H](C(=O)N1CCC(Cc3ccccc3)CC1)[C@@H]2CO,-7,-1
C[C@H](CO)N1C[C@H](C)[C@@H](CN(C)Cc2ccncc2)Oc2c(cccc2N(C)C)C1=O,9,-6
C[C@@H]1CN([C@H](C)CO)C(=O)c2cccc(NC(=O)c3ccncc3)c2O[C@@H]1CN(C)C(=O)Nc1ccccc1,27,15
Cc1noc(C)c1NC(=O)N(C)C[C@@H]1OCCCC[C@H](C)Oc2ccc(NC(=O)NC3CCCCC3)cc2C(=O)N([C@H](C)CO)C[C@H]1C,14,-3
O=C(C[C@H]1CC[C@H]2[C@@H](COC[C@H](O)CN2C(=O)c2ccccc2F)O1)NCc1ccccc1,6,9
COc1ccccc1S(=O)(=O)N[C@@H]1CC[C@H](CCNC(=O)C2CCCC2)O[C@H]1CO,0,5
C[C@@H]1CN([C@H](C)CO)C(=O)c2cc(NC(=O)Nc3ccc(C(F)(F)F)cc3)ccc2O[C@@H]1CN(C)Cc1ccc(C(=O)O)cc1,7,4
CN(C)C(=O)c1cccc(-c2ccc([C@@H]3[C@H]4CN(S(C)(=O)=O)CCCCN4[C@H]3CO)cc2)c1,49,11
C[C@@H]1CCCCO[C@@H](CN(C)S(=O)(=O)c2cccs2)[C@H](C)CN([C@@H](C)CO)C(=O)c2cc(NC(=O)C3CCCCC3)ccc2O1,?,·
C[C@@H]1CCCCO[C@H](CN(C)C(=O)Nc2ccc(F)cc2)[C@H](C)CN([C@@H](C)CO)C(=O)c2cc(NC(=O)NC3CCCCC3)ccc2O1,-10,-7
CN1C(=O)c2cc(NC(=O)c3ccccc3Cl)ccc2OC[C@@H]2O[C@@H](CC(=O)O)CC[C@@H]21,11,7
CCC(=O)Nc1ccc2c(c1)C(=O)N(C)C[C@@H](OC)[C@@H](C)CN(Cc1ccccn1)[C@@H](C)CO2,-6,-3
CCCNC(=O)N(C)C[C@H]1Oc2ncc(-c3ccccc3)cc2C(=O)N([C@H](C)CO)C[C@H]1C,4,5
O=C(Nc1ccccc1)N1C[C@@H]2[C@H](c3ccccc31)[C@@H](CO)N2CC1CCCC1,-6,-2
C[C@H](CO)N1C[C@H](C)[C@H](CN(C)C(=O)c2ccncc2)OCc2cnnn2CCCC1=O,-2,-5
Cc1noc(C)c1NC(=O)Nc1ccc2c(c1)C(=O)N([C@H](C)CO)C[C@H](C)[C@@H](CN(C)S(=O)(=O)c1ccc(Cl)cc1)OCCCC[C@H](C)O2,22,2
Cn1cnc(S(=O)(=O)N[C@@H]2CC[C@H](CC(=O)Nc3ccc(-c4ccccc4)cc3)O[C@@H]2CO)c1,3,5
Cc1ccc(S(=O)(=O)Nc2ccc3c(c2)CC(=O)N([C@@H](C)CO)C[C@@H](C)[C@H](CN(C)Cc2ccncc2)O3)cc1,4,-1
C[C@@H]1CN([C@@H](C)CO)C(=O)c2cccc(NS(=O)(=O)c3cn(C)cn3)c2O[C@@H]1CN(C)S(=O)(=O)c1ccccc1,13,3
C[C@@H]1CN([C@H](C)CO)C(=O)c2cc(C#CCc3ccccc3)cnc2O[C@H]1CN(C)CC1CCCC1,?,·
CC(C)NC(=O)Nc1ccc2c(c1)CC(=O)N([C@H](C)CO)C[C@H](C)[C@H](CN(C)C)O2,12,16
